# Assay outcomes from PubChem.
# AmpC inh no det = inhibitors of E. coli AmpC beta-lactamase without detergent. AmpC nitrocefin hydrolysis, absorbance 480 nm, no detergent; potencies from a single point are estimates. Potency, µM (top dose mostly 28.7 µM), inactives show at the highest dose activity change, negative = inhibition. P00811. AID 585. actives 1.8% (n = 71,000); active = falling curve, for most hits resting on a single point; inconclusive = weak or doubtful change; inactive = flat or rising curve; also: % of control where 0% means no effect; about half of the hits show no inhibition at the top dose; a quarter of the inactives give rising signals
# Target sequence (P00811 whole entry, looked up): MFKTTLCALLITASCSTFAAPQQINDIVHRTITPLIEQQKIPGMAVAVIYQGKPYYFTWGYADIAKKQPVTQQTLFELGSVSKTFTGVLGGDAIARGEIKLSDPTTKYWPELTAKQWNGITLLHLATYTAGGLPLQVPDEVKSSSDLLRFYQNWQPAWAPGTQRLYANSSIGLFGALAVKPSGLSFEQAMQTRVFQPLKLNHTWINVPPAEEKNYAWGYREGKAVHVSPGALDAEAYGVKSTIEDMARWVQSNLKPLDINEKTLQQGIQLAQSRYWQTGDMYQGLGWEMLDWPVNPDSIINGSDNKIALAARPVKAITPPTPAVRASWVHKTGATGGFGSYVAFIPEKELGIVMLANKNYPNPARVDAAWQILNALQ
#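 AmpC, 20 mM phosphate pH 7.0; 15 min cpd preinc, RT; start with nitrocefin (800 uM stock); A480 kinetic read, 20 s intervals, 4 min. No-enzyme wells = negative control.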
# An asterisk follows results filed as active; ? = inconclusive; [ ] = another dose, or the depositor's remark. Potency is read from the fitted curve at half-maximal effect.
SMILES,AmpC inh no det
CCOC(=O)N1CCN(C(=O)c2cnn3ccccc23)CC1,4µM*[single pt active]
CN1CCN(Cc2nc3cccc4c3c([n+]2[O-])-c2ccccc2-4)CC1,-3%[5.75 µM]
CCOC(=O)c1c(C2COc3ccccc3O2)csc1N (stereo unspecified),3%
COc1ccc(OC)c(N(CC(=O)Nc2ccc3c(c2)OCO3)S(=O)(=O)c2ccccc2)c1,-2%
COc1cc2c(cc1OC)C(C(=O)N1CCCC1)C(c1ccccc1F)N(C)C2=O (stereo unspecified),32%
CCCc1[nH]nc2c1C(c1ccc(OC(=O)c3ccco3)cc1)C(C#N)=C(N)O2 (stereo unspecified),1%
COc1ccccc1N1CCN(S(=O)(=O)c2ccc3c4c(cccc24)C(=O)N3C)CC1,69%
O=C(C1CCC(Cn2c(=S)[nH]c3ccccc3c2=O)CC1)N1CCN(c2ccccc2)CC1 (stereo unspecified),30%
COc1ccc(-n2nnc3c(=O)n(Cc4ccccc4C)cnc32)cc1,-10%
COc1ccc(C2C(C(=O)NCc3ccccc3)=C(C)Nc3ncnn32)cc1OC (stereo unspecified),-7%
CCN(CC)CCNC(=O)c1cc2c(=O)n(C)c3ccccc3c2n1C,?
COC(=O)c1ccc(=O)n(-c2ccc(OC)cc2)c1,-5%
COc1ccc(-c2c3c(=O)n(C)c(=O)n(C)c3cn2NC(C)=O)cc1,-7%
CCN1CCN(C(CNS(=O)(=O)c2ccc(OC)cc2)c2cccnc2)CC1 (stereo unspecified),1%
COc1ccc(OCC(=O)N(C)Cc2ccccc2)cc1,12%
CCc1cccc(NC(=O)C2CCCN(S(=O)(=O)c3c(C)[nH]c(=O)[nH]c3=O)C2)c1 (stereo unspecified),3%
c1cnc2ccc(C(c3nnnn3C3CCCC3)N3CCN(c4nc5ccccc5s4)CC3)cc2c1 (stereo unspecified),106%
O=C(Nc1cccc(Cl)c1)c1ccc2c(=O)n3c(nc2c1)CCCCC3,16%
NC(=O)c1c(C(F)(F)F)cc(-c2ccccc2)nc1NCCO,46%
OC12CCCCC1C(c1ccc3c(c1)OCO3)N(Cc1cccc(F)c1)CC2 (stereo unspecified),65%
CS(=O)(=O)N1CCC2(CCN(C(=O)Nc3cccc(C#N)c3)CC2)CC1,13%
COCCN1Cc2cccc(C(=O)NCc3cccnc3)c2C1=O,11%
CC(C)(CC(=O)Nc1ccccc1)C(=O)O,-4%[5.75 µM]
O=C(NC1CCCC1)C(c1ccc(Cl)cc1)N1CCOCC1 (stereo unspecified),29%

# Five neighbouring records from above, quoted:
SMILES,AmpC inh no det
NC(=O)c1c(C(F)(F)F)cc(-c2ccccc2)nc1NCCO,46%
OC12CCCCC1C(c1ccc3c(c1)OCO3)N(Cc1cccc(F)c1)CC2 (stereo unspecified),65%
CS(=O)(=O)N1CCC2(CCN(C(=O)Nc3cccc(C#N)c3)CC2)CC1,13%
COCCN1Cc2cccc(C(=O)NCc3cccnc3)c2C1=O,11%
CC(C)(CC(=O)Nc1ccccc1)C(=O)O,-4%[5.75 µM]

# Next section:
SMILES,AmpC inh no det
C/C(N)=C(/C#N)C(=O)COC(=O)CC1CCCC1,4%
O=C(CCN1CCN(CCO)CC1)Nc1ccc(F)c(F)c1,3%
O=C(O)COc1ccc(Oc2ccccc2)cc1,-4%
CCOC(=O)N1CCC(NC(=O)c2ccc3c(c2)ncn3C2CCCC2)CC1,25%
Cc1cccc(N2CC(C(=O)Nc3ccc4c(c3)OCO4)CC2=O)c1C (stereo unspecified),27%
Cc1nn(-c2ccccc2)c2sc(C(=O)OCc3nnc(-c4ccccc4)o3)cc12,6%
COc1cc(C2=NOC(C(=O)Nc3ccc(C)cc3)C2)cc(OC)c1OC (stereo unspecified),65%
CCS(=O)(=O)NCc1cn2ccsc2n1,0%
COc1ccccc1C1=Nn2c(nnc2C2CCCCC2)SC1,88%
O=C(Cn1nc(-c2ccccc2)ccc1=O)N1CCOCC1,1%
CCOC(=O)CN(C(=O)Cn1nnc2ccccc21)C(C(=O)NCCOC)c1ccccc1 (stereo unspecified),3%
CC(C)CCNC(=O)Cc1c(C(=O)O)[nH]c2ccc(Cl)cc12,-1%

# Reprinted from the part before: two compounds, then new ones.
SMILES,AmpC inh no det
CCOC(=O)CN(C(=O)Cn1nnc2ccccc21)C(C(=O)NCCOC)c1ccccc1 (stereo unspecified),3%
CC(C)CCNC(=O)Cc1c(C(=O)O)[nH]c2ccc(Cl)cc12,-1%
COCCn1nnnc1C(C(C)C)N1CCC(Cc2ccccc2)CC1 (stereo unspecified),101%
CC(C)=N[C@H](C(=O)O)C(C)(C)S,0%[5.75 µM]
COc1cc2c(cc1OC)-c1cc(N3CCCCCC3)nc(=O)n1CC2,27%
Cc1cc(NS(=O)(=O)c2ccc(NC(=O)Nc3ccccc3)cc2)no1,-18%
O=C(NC12CC3CC(CC(C3)C1)C2)c1cc2nc(-c3ccco3)cc(C(F)(F)F)n2n1,80%
COc1ccc(-c2cc(C(F)(F)F)n3nc(C(=O)N4CCCC4)cc3n2)cc1,0%
Clc1ccc(CSc2nnc(-c3ccncc3)o2)c(Cl)c1,52%
O=C(O)c1ccc(CSc2n[nH]c(-c3ccco3)n2)cc1,2%
O=C(c1cc(-c2ccc3c(c2)OCO3)on1)N1CCN(c2ccccc2)CC1,0%
CCC1CCCCN1C(=O)c1nn2cccnc2c1Cl (stereo unspecified),13%
COc1cc(C(c2nnnn2C(C)(C)C)N2CCN(C)CC2)cc(OC)c1OC (stereo unspecified),-6%
Nn1c(SCC(=O)NCCC2=CCCCC2)nnc1C1CCCCC1,39%
CCOc1ccc(-c2noc(-c3ccncc3)n2)cc1OCC,131%
Cn1c(=O)n(CCN2CCOCC2)c(=O)c2c1nc1n2CCN1c1ccccc1,22%
Cc1cccc(-n2ncc3c(N4CCCC4)ncnc32)c1,76%
Cc1sc2nc(SCC(=O)N3CCCCC3)[nH]c(=O)c2c1C,45%
O=C(CSC1CCCCC1)N1CCN(c2ccccc2)CC1,59%
O=C(NC1CCCC1)c1ccc(S(=O)(=O)N2CCCC2)cc1,-1%
Cn1c(CNC(=O)Nc2cccc(Cl)c2)nnc1SCc1ccccc1,-2%
CCC(=O)Nc1cccc(NC(=O)c2cccnc2)c1,5%
COc1ncc2nc(-c3ccccc3)c(=O)n(C)c2n1,20%
CCc1nnc(NC(=O)CN2CCN(C3CCCCC3)CC2)s1,-23%
COc1cccc(C(=O)Nc2c(C(N)=O)oc3ccccc23)c1,-5%
Cc1ccc(-c2noc(CCC(=O)Nc3ccc4c(c3)OCO4)n2)cc1,-12%
CCOc1cc(-c2ccc(N)c(OCC)c2)ccc1N,6%
O=C(CN1C(=O)c2ccccc2S1(=O)=O)Nc1ccc(S(=O)(=O)N2CCCCC2)cc1,4%
O=C1NC(=O)[C@]2(Cc3ccccc3N3CCN(c4ccccc4)CC32)C(=O)N1Cc1ccccc1 (stereo partly specified),10µM*[single pt active]
O=C(CSc1nc2c(cnn2-c2ccccc2)c(=O)[nH]1)c1ccc(Cl)cc1,7.9µM*
Cc1cc(N2CCN(C(=O)c3ccco3)CC2)n2nc(C)nc2n1,0%
O=C1CC(Cc2ccccc2)C(=O)N1CCc1ccc2c(c1)OCO2 (stereo unspecified),13%
O=C(Cn1nnc(-c2cccs2)n1)OC1CCCCC1,10%
C[C@H](CCC(=O)O)[C@H]1CC[C@H]2[C@@H]3CC[C@@H]4C[C@H](O)CC[C@]4(C)[C@H]3C[C@H](O)[C@]12C,90%
COc1ccccc1CNc1nc(-c2cccnc2)nc2ccccc12,24%
O=C(O)CCCCn1ccc(=O)[nH]c1=O,-1%[5.75 µM]
Cc1ccc(NCc2nnc(SCC(=O)NCCc3ccccc3)n2C)cc1,29%
Cc1cc(NC(=O)CSc2nc3c(c(=O)n2-c2ccc(Cl)cc2)SCC3)no1,-2%
O=C(CN1C(=O)c2ccccc2C1=O)N1CCN(c2nnc(-c3ccccc3)c3ccccc23)CC1,48%
O=C(c1ccco1)N1CCN(c2ncnc3c(-c4ccccc4)nsc23)CC1,108%
C1CCC2OC2C1 (stereo unspecified),-10%
CCN(CC)c1ccc2cc(C(=O)Nc3ccc(-n4cnnn4)c(OC)c3)c(=O)oc2c1,-2%
COC(=O)c1[nH]c2ccc(C)cc2c1NC(=O)C(C)N1CCN(C2CCCCC2)CC1 (stereo unspecified),34%
O=c1c2ccccc2nc(-c2ccccc2)n1-n1cccc1,-14%
CC(=O)Nc1ccc(S(=O)(=O)N2CCCN(S(=O)(=O)c3ccc(NC(C)=O)cc3)CC2)cc1,16%
COc1ccc(-n2nc(C(F)(F)F)cc2-c2ccc(Cl)cc2)cc1,-3%
COc1cc(C(=O)NCCC(=O)NCCCN2CCCCC2C)cc(OC)c1OC (stereo unspecified),-12%
O=C(NCCCN1CCN(Cc2ccccc2)CC1)c1nnc(Cc2c(F)cccc2Cl)o1,65%
CCC(C)Cn1c(S(=O)(=O)O)nc2ccccc21 (stereo unspecified),-5%
CCOC(=O)c1ccc(N2C(=O)c3n[nH]c(C)c3C2c2ccc(OC)cc2OC)cc1 (stereo unspecified),44%
COC(=O)C1=CNC=C(C(=O)OC)C1c1ccc(Cl)cc1,0%
COc1ccc(Cl)cc1N1CC(c2nc3ccccc3[nH]2)CC1=O (stereo unspecified),17%
O=S(=O)(c1ccc(OCC(O)CN2CCC(Cc3ccccc3)CC2)cc1)N1CCOCC1 (stereo unspecified),76%
CC(C)OCCCNC(=O)c1ccncc1,-2%
COc1ccc(Br)cc1C1CC(=O)N2CN(Cc3ccccc3)CSC2=C1C#N (stereo unspecified),2µM*
Cc1cc(C)c2c(CN3CCN(CCO)CC3)cc(=O)oc2c1,4%
CC(=O)c1ccc(OCC(O)CN2CCCC(C)C2)cc1 (stereo unspecified),3.2µM*[single pt active]
CCOCCCn1cnc2c(c1=O)c1nc3ccccc3nc1n2-c1ccccc1,121%
Nc1nnc(SCc2coc(-c3ccc(Cl)cc3)n2)s1,2%
CCOc1ccc(C(=O)NCc2cccs2)cc1,-3%
Cc1nc2c(nnn2Cc2ccccc2)c(=O)n1-c1ccccc1,-17%
CCOC(=O)c1cccc(NC(=O)CCc2c(C)nc3ncnn3c2C)c1,32%

# Structural class, those above with fluorine
SMILES,AmpC inh no det
COc1cc2c(cc1OC)C(C(=O)N1CCCC1)C(c1ccccc1F)N(C)C2=O (stereo unspecified),32%
NC(=O)c1c(C(F)(F)F)cc(-c2ccccc2)nc1NCCO,46%
OC12CCCCC1C(c1ccc3c(c1)OCO3)N(Cc1cccc(F)c1)CC2 (stereo unspecified),65%
O=C(CCN1CCN(CCO)CC1)Nc1ccc(F)c(F)c1,3%
O=C(NC12CC3CC(CC(C3)C1)C2)c1cc2nc(-c3ccco3)cc(C(F)(F)F)n2n1,80%
COc1ccc(-c2cc(C(F)(F)F)n3nc(C(=O)N4CCCC4)cc3n2)cc1,0%
COc1ccc(-n2nc(C(F)(F)F)cc2-c2ccc(Cl)cc2)cc1,-3%
O=C(NCCCN1CCN(Cc2ccccc2)CC1)c1nnc(Cc2c(F)cccc2Cl)o1,65%

# The results go on:
SMILES,AmpC inh no det
CCOC(=O)C(C)NC(=O)C(NC(=O)C1CCC(CC)CC1)C(C)C (stereo unspecified),21%
Cc1oc2cc(O)cc(O)c2c(=O)c1-c1ccc2c(c1)OCCCO2,-13%
Cc1cc(C)c2c(CC(=O)NCc3ccco3)coc2c1,5%
CCOC(=O)c1[nH]c(C)c(C(=O)Nc2ccc(C)c(C)c2)c1C,71%
COc1nc(N(C#N)CC(N)=O)nc(N2CCCC2)n1,-4%
O=C(c1ccccc1)c1cncc(Br)c1,-2%
Cc1cccc(CNc2nc(-c3ccc(C(=O)N(C)C)cc3)nc3ccccc23)c1,117%
O=C(Oc1ccc(-c2nnco2)cc1)N1CCOCC1,0%
Cc1noc(C)c1C(=O)N1CCC2(CC1)CCN(c1cccc(-c3ccccc3)c1)CC2,21%
CC(C)(C)NC(=O)CSc1nnnn1C(C)(C)C,22%
COc1ccc(Cl)cc1N1CCN(CCNC(=O)Nc2ccccc2C)CC1,51%
Cc1oc(-c2cccc(Cl)c2)nc1CN1CCC(C(=O)N2CCN(c3ccccn3)CC2)CC1,81%
CCCCCn1c(=O)c(C(=O)OCC)c(O)c2ccccc21,7%
CCCCN(CCCNC(=O)C1CCCN(S(=O)(=O)CC)C1)Cc1ccccc1 (stereo unspecified),3%
CCCCOC(=O)c1ccc(NC(=O)C2CCCO2)cc1 (stereo unspecified),28%
O=C(O)CNCP(=O)(O)O,2%[5.75 µM]
O=C1CCC(=O)N1OCCCOc1ccc(Br)cc1Cl,69%
CC(=O)C1=C(O)C(=O)N(c2cc(C(C)(C)C)on2)C1c1ccc(Br)cc1 (stereo unspecified),4%
CC(=O)OCCNC(=O)c1cccnc1,-7%
CC(=O)Nc1ccc(NC(=O)N2CCCCC2)cc1,-3%
O=C1c2oc3ccc(F)cc3c(=O)c2C(c2ccncc2)N1CCN1CCOCC1 (stereo unspecified),1%
CCNc1ncc2nc(-c3cc(F)cc(F)c3)c(=O)n(CCc3ccccc3)c2n1,8%
Cc1sc2nc(SCC(=O)NCc3ccco3)n(-c3ccccc3)c(=O)c2c1C,14%
CCN(CC)CCCN(Cc1cc2cc3c(cc2[nH]c1=O)OCCO3)C(=O)Nc1ccccc1,37%
CC(=O)N1c2ccccc2C(=O)OC1c1cccnc1 (stereo unspecified),-3%
Cc1c(C(=O)NCCCN2CCOCC2)sc2ncnc(N3CCN(c4ccccc4)CC3)c12,164%
CCc1ccccc1NC(=O)N[C@@H](C)C(=O)OC,0%
O=C(CSc1nnc(-c2cnccn2)n1Cc1ccco1)Nc1ccc(Br)cc1,65%
Cc1cccc(N2CCN(C(=O)C3CCN(S(=O)(=O)c4cccc5cccnc45)CC3)CC2C)c1 (stereo unspecified),90%
CN(C)C(=O)c1ccc(-c2nccc(NCc3cccs3)n2)cc1,35%
Cc1ccccc1NCc1ccccc1O,-10%

# The list is partial, so the mix of outcomes need not match the whole.
